Compound activity from PubChem.
p97 ATPase inh: inhibitors of human p97 ATPase; actives 0.42% (n = 220,000); recombinant p97 ATPase, Kinase-Glo ATP luminescence, 3 h; inhibition, % at 8 µM; P55072; in the data active = inhibition above about 15%;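 note: 0% = DMSO vehicle and 100% = wells lacking enzyme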
Target sequence (P55072 whole entry, looked up): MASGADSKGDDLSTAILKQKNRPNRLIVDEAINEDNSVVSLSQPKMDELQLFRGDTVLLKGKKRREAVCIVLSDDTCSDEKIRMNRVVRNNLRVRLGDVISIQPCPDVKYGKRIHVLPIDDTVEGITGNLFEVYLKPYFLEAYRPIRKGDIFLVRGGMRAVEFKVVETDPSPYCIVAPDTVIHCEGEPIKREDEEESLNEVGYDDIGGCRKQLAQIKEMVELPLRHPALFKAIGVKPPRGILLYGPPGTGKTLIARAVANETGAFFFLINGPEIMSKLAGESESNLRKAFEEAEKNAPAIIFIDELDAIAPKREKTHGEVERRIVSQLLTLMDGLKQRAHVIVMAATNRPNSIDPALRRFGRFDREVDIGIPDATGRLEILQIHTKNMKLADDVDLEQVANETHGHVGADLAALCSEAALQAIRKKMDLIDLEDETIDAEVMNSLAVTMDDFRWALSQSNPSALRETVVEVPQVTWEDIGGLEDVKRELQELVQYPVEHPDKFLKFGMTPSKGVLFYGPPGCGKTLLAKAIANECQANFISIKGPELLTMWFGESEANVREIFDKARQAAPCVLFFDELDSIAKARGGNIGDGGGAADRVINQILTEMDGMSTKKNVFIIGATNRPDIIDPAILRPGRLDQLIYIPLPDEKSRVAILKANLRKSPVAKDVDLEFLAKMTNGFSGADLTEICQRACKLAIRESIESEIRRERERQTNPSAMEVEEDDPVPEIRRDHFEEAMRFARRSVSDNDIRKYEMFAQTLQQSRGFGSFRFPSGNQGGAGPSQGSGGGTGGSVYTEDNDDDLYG
14-3-3 Bad PPI: disrupts binding of bovine 14-3-3 zeta to phospho-Bad peptide | P63103 | TR-FRET 14-3-3zeta/Dy647-pBad peptide displacement, 1 h | inhibition, % at 21.7 µM | actives 0.71% (n = 220,000) | AID 781;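 active = inhibition above about 70%, limit read from the data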;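 note: 0% = full 14-3-3 plus peptide FRET controls and 100% = background without 14-3-3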
eIF4E 4G PPI: inhibitors of eIF4E and eIF4G interaction in translation initiation; TR-FRET eIF4E-eIF4GI(517-606) binding, 2 h; inhibition, % at 21.7 µM; P63073+Q04637; actives 0.37% (n = 220,000);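 active = inhibition above about 30%, limit read from the data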;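 note: 0% = full FRET control wells and 100% = background wells lacking eIF4GI fragment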
MDM2 E3 inh: Mdm2 E3 ligase (human) inhibition | cell-based MDM2 ubiquitination luciferase reporter, 2 h; 0 = plate control, 100 = twice control, blank-subtracted | actives 0.11% (n = 210,000) | signal enhancement, % at 5 µM | Q00987;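 active = signal enhancement of 30% or more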;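 note: luminescence tracks abundance of the self-degrading MDM2-luciferase fusion protein; higher signal means inhibition of MDM2 E3 ligase activity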
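Assay system: mammalian cells stably expressing self-ubiquitinating, self-degrading MDM2 E3–luciferase fusion. Quantity: 2000 cells in each well. Medium: DMEM culture medium. Compound dosing: single-point 5 µM. Timing: cell settling 4 h, compound treatment 2 h, both 37 °C. Technique: luciferase luminescence. Read-out basis: percent signal gain over controls, blank-subtracted. Benchmarks: plate controls and plate blanks.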
Wee1 stabilizer: blocks degradation of human Wee1 kinase. reporter increase, % at 5 µM. HeLa Luc-Wee1K328M stability, luciferase luminescence; 100% = proteasome inhibitor MG132 effect. P30291. actives 1.2% (n = 220,000);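 active = activation above the mean of all tested compounds plus 3 SD, set per screening run, cut at about 8.8% in these data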;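 note: cells exposed to compound for 20 h before luminescence read; 0% = DMSO alone and 100% = MG132 at 30 µM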
KLK5 inh: inhibitors of human kallikrein 5. Q9Y337. recombinant hK5, fluorogenic AMC substrate cleavage. inhibition, % at 5 µM. actives 0.59% (n = 210,000). AID 873;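 active = inhibition of 40% or more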;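 note: 0% = enzyme controls without compound and 100% = no-enzyme blanks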
Target sequence (Q9Y337 67-293 limits assumed): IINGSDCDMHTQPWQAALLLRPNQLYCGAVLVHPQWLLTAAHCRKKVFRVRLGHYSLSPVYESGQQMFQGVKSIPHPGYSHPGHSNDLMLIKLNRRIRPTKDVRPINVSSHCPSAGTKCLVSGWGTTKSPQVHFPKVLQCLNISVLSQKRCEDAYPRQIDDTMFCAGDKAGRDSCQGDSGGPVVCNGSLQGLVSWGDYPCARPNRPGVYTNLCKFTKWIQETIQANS
Rad51 HR inh: blocks human Rad51 in homologous recombination; Q06609; hRad51 DNA strand exchange, fluorescence dequenching; inhibition, % at 10 µM; actives 0.085% (n = 200,000);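 active = inhibition above 40% at the single screening dose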;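 note: 0% = DMSO control wells and 100% = blanks with heterologous ssDNA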
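material = hRad51 filaments on single-stranded DNA | reagent = Donor/quencher-labelled 47-bp dsDNA substrate | compound = 10 µM final, single point | schedule = strand-exchange reaction 15 min at room temperature | measured by = fluorescein emission 520 nm, excitation 485 nm | read-out basis = % inhibition versus plate control and blank means | benchmarks = plate controls and plate blanks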
* = called active by the depositor; / = no result given; [ ] = remark or other dose.

A first look:
p97 ATPase inh	14-3-3 Bad PPI	eIF4E 4G PPI	MDM2 E3 inh	Wee1 stabilizer	KLK5 inh	Rad51 HR inh	smiles
7	-12[fluorescence artefact?]	5[fluorescence artefact?]	-15	7	-11	1	COc1ccc(NC(=O)C2CC(c3ccc(OC)c(OC)c3)=NO2)cc1OC (stereo not drawn)
0	-14[fluorescence artefact?]	-14	-14	1	-20	-1	CC1=C(C(=O)Nc2ccccc2)C(c2ccncc2)n2nnnc2N1 (stereo not drawn)
-6	-9	-4	-12	2	-8	1	C=CC[C@@H]1Cc2c(Br)ccc(Br)c2[C@@H](CC=C)N1

This part in full, repeating the preview:
p97 ATPase inh	14-3-3 Bad PPI	eIF4E 4G PPI	MDM2 E3 inh	Wee1 stabilizer	KLK5 inh	Rad51 HR inh	smiles
7	-12[fluorescence artefact?]	5[fluorescence artefact?]	-15	7	-11	1	COc1ccc(NC(=O)C2CC(c3ccc(OC)c(OC)c3)=NO2)cc1OC (stereo not drawn)
0	-14[fluorescence artefact?]	-14	-14	1	-20	-1	CC1=C(C(=O)Nc2ccccc2)C(c2ccncc2)n2nnnc2N1 (stereo not drawn)
-6	-9	-4	-12	2	-8	1	C=CC[C@@H]1Cc2c(Br)ccc(Br)c2[C@@H](CC=C)N1
2	4	-3	-11	2	1	2	O=C1CCCC(O)=C1C=Nc1cccc(C(F)(F)F)c1
-5	8	-2	-14	0	8	2	Cc1ccc(CN(c2ccc(C(=O)N3CCCC3)cc2)S(C)(=O)=O)cc1
6	-5	7	-3	-3	-2	0	C/C(=N\NC(=O)c1ccc(CSc2nncn2C)cc1)c1cccs1
-9	-11	-19[fluorescence artefact?]	-3	-2	-12	-2	CCOc1ccc(Cc2c(Cl)nc(N)nc2Cl)cc1
4	2[fluorescence artefact?]	3	0	3	3	-5	Cc1ccccc1NC(=O)C1CC(Cl)=CCC1C(=O)O (stereo not drawn)
0	-14	0	-12	0	7	/	Nc1nc(-c2cccnc2)nn1C(=O)c1ccco1
5	-2	7	-20	-1	-3	10	C/C(=N\NC(=O)c1ccc(NS(=O)(=O)c2cccs2)cc1)c1ccc2ccccc2c1
1	1	-6	-13	-2	1	/	CC(C)c1nnc(NC(=O)CCC(=O)NCCc2ccccc2)s1
1	13	2	-2	-2	-15	7	CCCCCc1c(C)nc(SCC(=O)O)[nH]c1=O
-3	9	4	0	-2	22	/	O=S(=O)(Nc1nc2ccccc2nc1NCC1CCCO1)c1ccc(F)cc1 (stereo not drawn)
7	-4	-5[fluorescence artefact?]	-14	1	-7	/	O=C(COC(=O)c1ccccn1)NCc1ccccc1Cl
-1	-9	-13	-13	1	4	1	COCCn1c(SC(C)C(=O)Nc2ccc3c(c2)OCCO3)nc2ccccc2c1=O (stereo not drawn)
2	-2	-7	/	0	0	/	O=C(c1ccc(Cl)nc1)N1CCN(S(=O)(=O)c2ccccc2)CC1
-7	0	1	-9	-1	2	-7	C/C=C/C=C/C(=O)OCC(=O)Nc1ccc(Cl)cc1
1	/	/	1	-3	8	0	COc1ccc(C2=NOC(C(=O)Nc3ccc(C)cc3)C2)cc1OC (stereo not drawn)
-5	5	0	-11	0	21	-4	Cc1occc1C(=O)n1nnc2ccccc21
1	-1[fluorescence artefact?]	2	21	-3	-14	-4	COc1ccc(OCCNC(=O)CSc2ccc(C(F)(F)F)cc2[N+](=O)[O-])cc1
4	-4	-11	-18	-3	-12	0	CCOC(=O)c1cc(OC(=O)c2cccc([N+](=O)[O-])c2)n(-c2ccccc2)n1
6	-7	-2	-7	-2	2	-2	O=C(CN1C(=O)C(=O)N(Cc2ccccc2)C1=O)Nc1ccc(F)c(Cl)c1
2	-15	-4	7	-1	-4	-4	O=[N+]([O-])c1ccc(/C=N/n2c(COc3ccccc3)n[nH]c2=S)cc1
-1	38	3	-1	-1	-16	-4	COC(=O)c1ccc(N2CCC(C)CC2)c(N)c1
-5	-6[fluorescence artefact?]	0	/	-1	-3	9	O=C(Nc1ccc(N2CCN(C(=O)c3ccccc3)CC2)cc1)c1ccc2c(c1)OCO2
-4	8	-9	-7	-1	-7	-7	Cc1cccc(N2CCN(C(=O)CN3CCOc4ccccc43)CC2C)c1 (stereo not drawn)
-1	11	-1	-12	-1	4	-4	Cc1cnn(C(=O)c2cc(-c3ccccn3)nc3ccc(Cl)cc23)c1
2	-13	-2	-7	2	2	1	CC(NS(=O)(=O)c1ccc([N+](=O)[O-])cc1)C(=O)NN (stereo not drawn)
-2	-8	-3	-17	6	-6	-1	CCOc1ccc(C2C(C#N)=C(N)Oc3cc(C)n(CCN4CCOCC4)c(=O)c32)cc1OCC (stereo not drawn)
-7	8[fluorescence artefact?]	-3	-17	0	4	-16	C=CCn1c(CCNC(=O)c2ccccc2F)nnc1SCc1nc2ccccc2c(=O)[nH]1
4	11	3	-14	3	-1	-3	Cc1ccc(S(=O)(=O)NCC(=O)OCC(=O)c2cccs2)cc1
0	-10	-5	-10	-2	-21	-4	Cc1ccc2cc(C)c3nnc(SCC(=O)Nc4nc5c(s4)CCCC5)n3c2c1C
/	-1	-2	-10	/	7	2	Cc1cc(-c2cc(C(=O)NC3CCCC3)on2)nc(NCC2CC2)n1
10	-6	4[fluorescence artefact?]	-10	2	37	-7	Cc1cc(OC(=O)c2ccccc2)n(CCC#N)n1
7	1	2	-37	1	7	/	COc1ccc(S(=O)(=O)n2nc(OC(=O)c3ccccc3Br)cc2N)cc1
0	-2	0	-21	5	-6	25	CCCCn1nnnc1NCc1cc(Cl)c(OC)c(OC)c1
2	-7	-1	12	2	-9	12	Cn1c(SCC(=O)NCc2ccco2)nnc1-c1ccccc1
3	5	-3[fluorescence artefact?]	-16	0	5	-2	CC(=O)n1nc(-c2cccnc2)nc1N
0	-5	-2	/	2	-5	5	CC(=O)Oc1ccc2oc(-c3ccccc3)c(C(N)=O)c2c1
-7	26[fluorescence artefact?]	-34	-1	0	8	10	C/C(=N\NC(=O)c1ccc(CSc2nncn2C)cc1)c1ccc(Cl)cc1
2	-1	-2	-8	2	-2	5	C/C(Cc1ccccc1)=N\NC(=O)CNC(=O)COc1cccc(C)c1
4	-3	-5	-10	-1	12	-6	O=C(CSc1nccc(=O)[nH]1)N1c2ccccc2CCc2ccccc21
5	5	0	-3	-2	14	-8	Cc1ccc(OCc2nnc(SCC(=O)Nc3cc(C)on3)n2C)cc1
4	13	-1	1	0	8	-9	CCCCn1nnc(N(C(=O)c2cccs2)C(=O)c2cccs2)n1
1	-12	4	-11	0	-22	-6	CCN(CC)S(=O)(=O)c1cccc(NC(=O)COC(=O)/C=C/c2ccco2)c1
4	-12	-2	-21	-1	-8	-2	CCOc1ccc2nc(NCCNC(=S)NCCCN(C)C)c(C#N)cc2c1
-7	3	1	-11	-1	-3	3	Cc1ccc(OCCn2c(C3CC(=O)N(Cc4ccccc4)C3)nc3ccccc32)cc1 (stereo not drawn)
3	-2	-2	-10	2	-6	14	Cc1cc(C)n(C(=O)c2ccc(NC(=O)C3CC3)cc2)n1
4	-9	-6	2	0	7	3	C/C(=N\Nc1nc(-c2ccccc2O)nc2ccccc12)c1ccccc1
3	-2	-4	-2	-4	-11	6	COc1ccc(C2C(C#N)=C(N)Oc3cc(C)n(CCN4CCOCC4)c(=O)c32)cc1OC (stereo not drawn)
7	0	1[fluorescence artefact?]	-1	0	-7	4	CCn1c(C)cc2c(c1=O)C(c1ccncc1)C(C#N)=C(N)O2 (stereo not drawn)
1	-5[fluorescence artefact?]	2	0	3	-9	/	COC(=O)c1ccc(C2/C(=C(\O)c3cccc(OC)c3)C(=O)C(=O)N2CCCN(C)C)cc1 (stereo not drawn)
3	-1	-2	-6	0	-10	-4	COc1ccc(/C=C2\N=C(C)N(c3ccc(C(=O)O)cc3)C2=O)cc1OC
5	-2	-4	-13	0	-1	2	Cc1[nH]c(=O)[nH]c(=O)c1Cc1cccc2ccccc12
-2	27	-6	-6	-1	5	-4	Cc1sc2nc(CN3CCCC3)nc(N3CCN(C(=O)c4ccco4)CC3)c2c1C
3	32	13	-5	0	-13	12	CN(C)c1oc(-c2ccccc2)nc1C#N
2	3	8	10	-1	-9	/	Cc1cccc(S(=O)(=O)Nc2nc3ccccc3nc2NCc2ccco2)c1
4	-8	2	-4	0	-3	5	COc1ccc(NC(C)=O)cc1NC(C)C(=O)Nc1ccc(F)cc1 (stereo not drawn)
-2	1	4	-16	1	0	-8	Cn1c(=O)c2c(nc(N/N=C/c3ccncc3)n2Cc2ccccc2)n(C)c1=O
8	-13	1	-6	-3	-2	-8	O=C(NCc1cccnc1)c1cc2nc(-c3cccs3)cc(C(F)(F)Cl)n2n1

Remaining list, next part:
p97 ATPase inh	14-3-3 Bad PPI	eIF4E 4G PPI	MDM2 E3 inh	Wee1 stabilizer	KLK5 inh	Rad51 HR inh	smiles
1	2	-2	6	4	-17	3	COc1ccc(OCC(=O)Nc2cccc(OC)c2)cc1
-9	-11	6	-18	-2	-10	-4	CCC(NS(=O)(=O)c1c(C)[nH]c(=O)[nH]c1=O)C12CC3CC(CC(C3)C1)C2 (stereo not drawn)
-1	4	-1	-2	5	15	3	COC(=O)c1nc(NC(=O)c2ccccc2Br)n[nH]1
/	-9	-6	24	/	2	-1	CC(C)C[C@H](NC(=O)c1[nH]cnc1C(=O)N[C@@H](C)C(=O)OC(C)(C)C)C(=O)OCc1ccccc1
-1	-13	4	/	0	-8	4	CCN(CC)S(=O)(=O)c1cccc(C(=O)OCC(=O)Nc2ccccc2OC(F)F)c1
6	9[fluorescence artefact?]	-4[fluorescence artefact?]	-11	-1	1	5	COc1ccc(C(C#N)Nc2ccccc2)cc1 (stereo not drawn)
1	-1	6	/	1	/	5	Cc1ccc(C(=O)NC(=S)NCCCN2CCOCC2)cc1
-1	20	-1	-9	2	0	1	COc1ccc(C(N)CCc2ccco2)cc1 (stereo not drawn)
-4	-5	1	5	1	-8	-12	COC(=O)c1cc2nc(-c3ccccc3)cc(C(F)(F)F)n2n1
10	-9	-1	-24	1	-10	0	O=C(O)c1cc(-c2ccccc2Cl)n[nH]1
4	48	4	-4	2	19	0	COCCCN1C(=O)C(=O)/C(=C(/O)c2ccc(OC)cc2)C1c1cccc(OC)c1 (stereo not drawn)
-5	10[fluorescence artefact?]	1[fluorescence artefact?]	-16	0	2	-7	CC(C)CCNC(=O)[C@@H](NC(=O)c1c(F)cccc1F)C(C)C
-1	3	4	-21	1	1	5	COc1ccc2[nH]c(C)c(C(=O)CN3CCN(C/C=C/c4ccccc4)CC3)c2c1
1	1	14	-22	0	-5	-12	Cc1ccc(C(=O)Oc2oc(-c3ccco3)nc2C=Nc2ccc(Cl)cc2)cc1
8	4	-7	-2	2	-20	18	Cc1cc(C)n(C(=O)c2ccc(S(=O)(=O)N3CCCC3)cc2)n1
5	3	-4	/	-2	3	7	CN(C)S(=O)(=O)c1cc(NC(=O)COC(=O)/C=C/c2ccco2)ccc1Cl
3	-1[fluorescence artefact?]	-3	-10	-2	-10	0	Cc1ccc2cc(C)c3nnc(SCC(=O)NCc4ccco4)n3c2c1
-11	15	0	-8	-3	5	-3	O=C1CN(C(=O)CNCc2ccc(Cl)cc2)c2ccccc2N1
6	1	0	-21	5	3	-4	COC(=O)Oc1ccc(/C=N/NC(=O)CSCc2ccccc2Br)cc1OC

Rewritten with tabs: entries from further up
SMILES	p97 ATPase inh	14-3-3 Bad PPI	eIF4E 4G PPI	MDM2 E3 inh	Wee1 stabilizer	KLK5 inh	Rad51 HR inh
COC(=O)c1cc2nc(-c3ccccc3)cc(C(F)(F)F)n2n1	-4	-5	1	5	1	-8	-12
O=C(O)c1cc(-c2ccccc2Cl)n[nH]1	10	-9	-1	-24	1	-10	0
COCCCN1C(=O)C(=O)/C(=C(/O)c2ccc(OC)cc2)C1c1cccc(OC)c1 (stereo not drawn)	4	48	4	-4	2	19	0

Only part of the results is shown; the hit share may differ from the screen's.
